gsp antag = qHTS for Antagonists of gsp, the Etiologic Mutation Responsible for Fibrous Dysplasia/McCune-Albright Syndrome: qHTS; gsp-mutant cells, cAMP HTRF, 30 min; control for the full effect not named in the record; hit rate 0.4% among 340,000; Potency, µM (series often up to 76.9 µM), inactives show at the highest dose activity change, negative = inhibition, usual class: inhibitors; active = falling curve of any shape with a large fitted effect; inconclusive = falling curve, mostly with a smaller effect; inactive = flat or rising curve; cell line not stated here;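 also: intracellular cAMP measured with PDE inhibitor Ro 20-1724 present during compound exposure; potency is read from the fitted curve at half-maximal effect; % is scaled to controls: 0 for no effect and ±100 for the full control effect; nearly all actives have a fitted effect of over 65% in size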
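HTRF cAMP measurement after 30 min RT detection following 30 min, 37C compound treatment alongside […] (added as 300 uM solution) in G418-selected cells seeded at 2000/well and grown 16–24 h.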
gsp ag = qHTS for Agonist of gsp, the Etiologic Mutation Responsible for Fibrous Dysplasia/McCune-Albright Syndrome: qHTS. gsp mutant cells, cAMP HTRF, 30 min; control for the full effect not named in the record. Potency, µM (doses to about 76.9 µM), for the others: at the top dose activation (cAMP increase), most hits filed as activators. hit rate 0.13% among 340,000. AID 624287, 2012; active = well fitted activation curve with a large enough effect; inconclusive = small, poorly fitted or top-dose-only effect, or another doubt; inactive = no such curve, though single readings can be large or run the other way; cell line not stated here;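 also: phosphodiesterase inhibitor Ro 20-1724 added with compounds to block cAMP breakdown; potency is read from the fitted curve at half-maximal effect; nearly all actives have a fitted effect of over 60% in size; about a fifth of the inactives were tested at one dose only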
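Cells in DMEM/10% FBS with G418 were pretreated with compounds in DMSO plus […] (300 uM stock) for 30 min at 37C. cAMP was measured by HTRF (cAMP-d2 plus anti-cAMP antibody-K) after 30 min at room temperature.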
CtBP-E1A blk = qHTS Assay for Inhibitors of the CtBP/E1A Interaction | CtBP / adenovirus E1A interaction (AlphaScreen) | AlphaScreen GST-E1A/His-CtBP binding, 1536-well; stronger effect = lower value; control for the full effect not named in the record | activity change, % (no concentration beside the values) | hit rate 0.49% among 340,000 | AID 651724, 2012; in the data active means activity change below about -65%; inconclusive means about -30% to -65%; inactive means above about -30%; also: % is scaled to controls: 0 for no effect and ±100 for the full control effect; compound concentration not given in the record
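Protein mix (5X: 125 nM each GST-E1A, His-CtBP) was incubated with pinned compound 2 h at 37 deg C in dark, in 50 mM Tris pH 8.0 buffer with 300 mM NaCl. Glutathione donor and nickel acceptor beads followed; AlphaScreen signal read after 1 h.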
Six1-Eya2 inh = qHTS Assay for Inhibitors of the Six1/Eya2 Interaction. Homeobox protein SIX1 (Homo sapiens) + Protein phosphatase EYA2 (Homo sapiens), …. AID 651725, 2012. hit rate 0.56% among 360,000. AlphaScreen GST-Six1/His-Eya2 binding, biochemical; stronger effect = lower value; control for the full effect not named in the record. activity change, % (test concentration not listed); in the data active = activity change below about -65%; inconclusive = about -30% to -65%; inactive = above about -30%; also: % is scaled to controls: 0 for no effect and ±100 for the full control effect; compound concentration not given in the record
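Homogeneous AlphaScreen proximity assay pairing GST-Six1 with His-tagged Eya2 (added as 5X mix: 250 nM and 500 nM) in 50 mM Tris pH 8.0, 300 mM NaCl, 1 mM TCEP. Glutathione donor and nickel acceptor beads; 1 h, 37 °C, dark.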
D2 potentiator = Beta-Arrestin HTS for Positive Allosteric Modulators of the Human D2 Dopamine Receptor: Potentiators | AID 624464, 2012 | hit rate 0.23% among 360,000 | potentiation, % (test concentration not listed) | D(2) dopamine receptor (Homo sapiens), P14416 | DiscoveRx D2 beta-arrestin cells, luminescence, 90 min; 100% = 57 uM dopamine signal; active = potentiation of 50% or more; inconclusive = 30% to 50%; inactive = 30% or less;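 also: compound concentration not given in the record; tested on top of an EC20 dose of dopamine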
Target sequence (P14416 whole entry, looked up): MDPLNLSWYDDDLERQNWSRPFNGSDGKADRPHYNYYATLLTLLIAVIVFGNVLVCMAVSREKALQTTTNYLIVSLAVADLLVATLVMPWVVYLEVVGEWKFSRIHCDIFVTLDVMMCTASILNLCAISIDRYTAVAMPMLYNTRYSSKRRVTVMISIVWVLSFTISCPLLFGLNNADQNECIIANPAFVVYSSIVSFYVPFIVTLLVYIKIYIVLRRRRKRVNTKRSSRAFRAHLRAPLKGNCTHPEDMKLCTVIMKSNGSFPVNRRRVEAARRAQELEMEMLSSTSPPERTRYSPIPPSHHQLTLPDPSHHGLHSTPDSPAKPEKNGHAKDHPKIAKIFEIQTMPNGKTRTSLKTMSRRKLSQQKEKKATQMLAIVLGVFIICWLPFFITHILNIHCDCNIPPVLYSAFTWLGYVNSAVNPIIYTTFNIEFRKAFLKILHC
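D2 cells co-treated with compound plus 50 nM dopamine (EC20) for 90 min at 37 deg C to detect potentiation. Beta-arrestin recruitment was read as enzyme-fragment luminescence after 1 h at ambient temperature. Full response was set by 57 uM dopamine.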
D2 ag = Beta-Arrestin HTS for Positive Allosteric Modulators of the Human D2 Dopamine Receptor: Agonists | D(2) dopamine receptor (Homo sapiens), P14416 | DiscoveRx PathHunter D2 beta-arrestin, luminescence, 90 min; 100% = 57 uM dopamine signal | activation, % (no concentration beside the values) | hit rate 0.084% among 360,000 | AID 624465, 2012; in the data active = activation above about 40%; inconclusive = about 15% to 40%; inactive = below about 15%; also: compound concentration not given in the record; the text of the record calls up to 30% inactive
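DiscoveRx PathHunter D2 beta-arrestin cells (2,100/well) attached overnight, then compound-stimulated 90 min at 37 C in HBSS/10 mM HEPES/0.1% Tween-20 buffer; beta-galactosidase complementation read by luminescence after 1 h at ambient temperature. Dopamine 57 uM final (EC100) as control.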
An asterisk follows results filed as active; ? = inconclusive; · = no result given; [ ] = dose if it differs, or a comment. Compounds as they come; about 1.4% have a hit in one of these screens.

item | SMILES | gsp antag | gsp ag | CtBP-E1A blk
1 | COc1ccc2oc(C(=O)OCC(=O)N(C)c3ccccc3)c(C)c2c1 | -6% | -2%[15.4 µM] | 0
2 | C[C@@H]1C=C(C(=O)N2CCN(Cc3ccc4c(c3)OCO4)CC2)O[C@H](OCCCCO)C1 | -2% | · | 2
3 | Cc1nn(-c2ccccc2)c2sc(C(=O)OCC(=O)N3CCCCC3)cc12 | -15% | -8% | 1
4 | COc1cc(C2CC(=O)Oc3ccc(C(C)(C)C)cc32)cc(OC)c1OC (centres undefined) | 8% | · | -10
5 | CCCOc1ccc(C(=O)N(CC(C)C)c2c(N)n(Cc3ccccc3)c(=O)[nH]c2=O)cc1 | 6% | -23%[15.4 µM] | -13
6 | Cn1c(CNc2ccccc2)cc(=O)n(C)c1=O | 9% | 4% | 4
7 | C[n+]1ccccc1/C=C/c1ccccc1Cl | 7% | -4% | 5
8 | COc1ccc(-c2nnn(CC(=O)N(CC(=O)NC3CCCC3)c3cccc(C)c3)n2)cc1OC | -9% | -2% | 5

item | Six1-Eya2 inh | D2 potentiator | D2 ag
1 | 5 | 3 | -7.7
2 | 1 | -3 | -2.9
3 | 5 | -16 | -8.7
4 | 0 | 7 | 0.9
5 | 3 | 2 | 4.8
6 | -1 | -8 | -2.5
7 | -8 | 2 | -3.1
8 | -6 | -11 | 1.8

Complete entries as entered above. Screens in order: gsp antag, gsp ag, CtBP-E1A blk, Six1-Eya2 inh, D2 potentiator, D2 ag
COc1cc(C2CC(=O)Oc3ccc(C(C)(C)C)cc32)cc(OC)c1OC (centres undefined) reads 8%, ·, -10, 0, 7, 0.9
CCCOc1ccc(C(=O)N(CC(C)C)c2c(N)n(Cc3ccccc3)c(=O)[nH]c2=O)cc1 reads 6%, -23%[15.4 µM], -13, 3, 2, 4.8
Cn1c(CNc2ccccc2)cc(=O)n(C)c1=O reads 9%, 4%, 4, -1, -8, -2.5
C[C@@H]1C=C(C(=O)N2CCN(Cc3ccc4c(c3)OCO4)CC2)O[C@H](OCCCCO)C1 reads -2%, ·, 2, 1, -3, -2.9
COc1ccc2oc(C(=O)OCC(=O)N(C)c3ccccc3)c(C)c2c1 reads -6%, -2%[15.4 µM], 0, 5, 3, -7.7

Values by screen from above:
D2 ag, compounds 1–8, in order: -7.7, -2.9, -8.7, 0.9, 4.8, -2.5, -3.1, 1.8

More records follow.
item | SMILES | gsp antag | gsp ag | CtBP-E1A blk
9 | O=C1N(Cc2cccnc2)C[C@@H]2C[C@@H](c3cccc(OC4CCCC4)c3)N3CCC[C@@]123 | -6% | -45%[inhibitor] | -13
10 | O=C(NC(=S)Nc1nc(-c2ccc(Cl)cc2)cs1)c1cccs1 | 6% | -8%[15.4 µM] | 4
11 | O=C(O)C1CC(c2ccccc2)=Nc2ccccc2S1 (centres undefined) | -23% | 1%[15.4 µM] | 0
12 | CCOc1ccc(S(=O)(=O)n2cc(F)c(=O)[nH]c2=O)cc1 | -25% | -26% | -1
13 | CCn1c(=O)c(C(=O)NNC(=O)c2ccccc2Cl)c(O)c2ccccc21 | ? | 1%[15.4 µM] | ?
14 | CCOC(=O)c1ccc(CN2Cc3ccccc3C2=O)cc1 | -5% | -22%[15.4 µM] | 7
15 | CCOC(=O)N1CCN(CC(O)COCCC23CC4CC(CC(C4)C2)C3)CC1 (centres undefined) | 0% | 3% | 2
16 | Cn1c(=O)c(C(=O)CN2CCN(S(=O)(=O)c3ccccc3)CC2)c(N)n(Cc2ccccc2)c1=O | -15% | 22% | -1

item | Six1-Eya2 inh | D2 potentiator | D2 ag
9 | -3 | 0 | 0.4
10 | 0 | -6 | -23
11 | 18 | 3 | -1.1
12 | -19 | 29 | 3.0
13 | -28 | -10 | -1.6
14 | 8 | -2 | 0.5
15 | -2 | -4 | 6.1
16 | -5 | -6 | 0.3

Some of the entries above, set out differently.
Each structure is followed by: gsp antag, gsp ag, CtBP-E1A blk, Six1-Eya2 inh, D2 potentiator, D2 ag
11) O=C(O)C1CC(c2ccccc2)=Nc2ccccc2S1 (centres undefined)
 : -23%, 1%[15.4 µM], 0, 18, 3, -1.1
12) CCOc1ccc(S(=O)(=O)n2cc(F)c(=O)[nH]c2=O)cc1
 : -25%, -26%, -1, -19, 29, 3.0
13) CCn1c(=O)c(C(=O)NNC(=O)c2ccccc2Cl)c(O)c2ccccc21
 : ?, 1%[15.4 µM], ?, -28, -10, -1.6

(further entries)
item | SMILES | gsp antag | gsp ag | CtBP-E1A blk
17 | COc1ccc(S(=O)(=O)N2CCc3ccccc32)cc1C(=O)Nc1cccnc1 | -4% | 24%[15.4 µM] | -1
18 | CC(C)c1cccc(C(C)C)c1NC(=O)Cn1c(=O)cnc2ccccc21 | 4% | 38% | ·
19 | CCOC(=O)Cc1csc(/N=C/c2c(O)n(-c3ccccc3C(F)(F)F)c(=O)c3ccccc23)n1 | -7% | -30%[inhibitor] | -19
20 | COc1ccc(NC2CCCN(C(=O)CCN3CCOCC3)C2)cc1 (centres undefined) | -12% | -2% | ·
21 | CC(C)C[C@@H](N)c1nnc(SCC(=O)c2ccc(Cl)cc2)o1 | -11% | -2% | -9
22 | Cc1cc(C(=O)COc2ccc3ccc(=O)oc3c2)c(C)n1Cc1cccs1 | -13% | 3% | -6
23 | CCN(CC)C(=O)Oc1ccc2c(=O)c(-c3ccc(OC)cc3)c(C)oc2c1 | -24% | 7% | 10
24 | CC1CCN(c2nnc(-c3ccccc3)c3ccccc23)CC1 | ? | 3%[15.4 µM] | 0

item | Six1-Eya2 inh | D2 potentiator | D2 ag
17 | -9 | -5 | -0.9
18 | 6 | -10 | -0.8
19 | 1 | 3 | 4.6
20 | -3 | -3 | 2.1
21 | -2 | 0 | -2.3
22 | -3 | -7 | 1.5
23 | -2 | -5 | -1.5
24 | -7 | -13 | -4.1

The list goes on:
item | SMILES | gsp antag | gsp ag | CtBP-E1A blk
25 | CCOc1ccc(CCNc2cc(C)nc3ncnn23)cc1OCC | -5% | 28% | 4
26 | Cc1cccc(NS(=O)(=O)c2ccc(C)c(C(=O)NC3CCN(Cc4ccccc4)CC3)c2)c1 | -6% | -39% | ·
27 | COc1ccc(OC)c(NC(=O)C2(C)CCN2CCc2ccccc2)c1 (centres undefined) | · | · | -10
28 | O=C(COc1ccccc1)Nc1cc(NC(=O)COc2ccccc2)cc(C(=O)O)c1 | 13% | -1%[15.4 µM] | -1
29 | CCOc1ccc(NC(=O)CC(NCc2ccccn2)C(=O)O)cc1 (centres undefined) | 3% | -35%[inhibitor] | -92*
30 | O=C(c1cccc(Oc2ccccc2)c1)N1CCN(c2ccccn2)CC1 | -2% | 19% | -17
31 | O=C(CNC(=O)c1ccccc1)NCc1ccc(Cl)cc1 | -4% | 0% | 11
32 | CC(C)NCc1nnc(-c2ccc(Cl)cc2)o1 | 0% | -110%[inhibitor] | ·
33 | Clc1ccccc1CN(Cc1ccccc1)C(c1cccs1)c1nnnn1C1CCCC1 (centres undefined) | -7% | 26% | 7
34 | CCOc1cc([N+](=O)[O-])cc(/C=N/NC(=O)c2c(-c3ccccc3)noc2C)c1O | -16% | 0% | -92*
35 | CC1(CC(=O)N/N=C/c2cc3c(cc2Br)OCO3)OCCO1 | -3% | 2%[15.4 µM] | 11

item | Six1-Eya2 inh | D2 potentiator | D2 ag
25 | -3 | 0 | 1.5
26 | 4 | -14 | -2.5
27 | -16 | -6 | -5.8
28 | -12 | -3 | 1.6
29 | -90* | 3 | 3.4
30 | -2 | 1 | -0.7
31 | 7 | -5 | 2.9
32 | 7 | -7 | -6.7
33 | 3 | -17 | -5.1
34 | -91* | 2 | -5.0
35 | 8 | -6 | -0.3

Bioassay records from PubChem.
